Sa ugtP lethal = compounds lethal to S. aureus RN4220 ugtP deletion mutant. OD600 growth, 16 h; some inactives read as strong as hits. growth inhibition, % (concentration not given with the values). 0.54% of 330,000 active. AID 1259309;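 active means z-score under -3 and OD600 up to 0.15 on both plates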;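 further: plate controls were untreated wells for no effect and antibiotic for full effect; wells of about 80 µL received 100 nL stock; the first replicate is given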
Autofluor counter = compound fluorescence in toxin protease inhibitor counterscreen; AID 624483; compound autofluorescence counterscreen, microsphere flow cytometry; hits give high values; 3.1% of 360,000 active; fluorescence intensity (concentration not given with the values);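 active means at least 3 SD above the mean of all compounds, about 16000 in these data; inconclusive means too few beads counted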;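 further: 100 nL of 1 mM stock went into each well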
Sa RN4220 lethal = kills Staphylococcus aureus RN4220 | S. aureus RN4220 growth, OD600, 16 h | inhibition, % (no concentration beside the values) | 0.33% of 330,000 active;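 active means z-score of -3 or lower and OD600 up to 0.18 on both plates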;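 further: plate controls were untreated cells for no effect and reference antibiotic for full effect; stock transfer was 100 nL into about 80 µL; one replicate is shown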
PrP UTR inh = inhibition of PrP 5' UTR reporter expression; cell-based PrP 5' UTR mRNA reporter, plate reader; inhibition, % (concentration not given with the values); 0.35% of 340,000 active; AID 488862;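 active means every replicate at 50% or more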;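 further: 0 = median of the neutral control wells; tested in H4 reporter cells; numbers are from one replicate; inactives centre near -14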
Mtb hypoxia inh = inhibitors of hypoxia-regulated fluorescent reporter in Mycobacterium tuberculosis | M. tuberculosis hypoxia-regulated fluorescent reporter, fluorescence | fluorescence inhibition, % (concentration not given with the values) | 0.1% of 300,000 active | AID 1159583;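 active means 35 to 45% if threefold the growth effect, above 45% if 1.5-fold the growth effect; inactive means the rest, general growth blockers included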;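 further: wells of about 50 µL received 100 nL stock; 0% = vehicle wells and 100% = reference inhibitor wells; whole bacteria with a GFP reporter of the hypoxia response; strong numbers were not always called active; many hits fall short of the cut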
BJeLR viability = kills HRASV12-expressing BJeLR cells; BJeLR (HRASV12) viability, CellTiter-Glo ATP luminescence, 48 h; reference of the scale not given here; inhibition, % (test concentration not listed); 0.17% of 300,000 active;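 active means replicate mean above 50%; inconclusive means above 50% but judged a plate artefact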;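 further: 50 nL library stock added to about 25 µL; numbers are from one replicate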
Mtb hypoxia inh growth = second read-out of Mtb hypoxia inh, no call of its own (marks repeat the call); growth inhibition, %; measured here: M. tuberculosis growth (absorbance);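 0% = vehicle and 100% = reference antibiotic; read after six days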
* hit, by the source's call; ? = inconclusive; . = no result given.

Start of the listing, in advance, 5 compounds:
Letters – A = Sa ugtP lethal; B = Autofluor counter; C = Sa RN4220 lethal; D = PrP UTR inh; E = Mtb hypoxia inh; F = Mtb hypoxia inh growth; G = BJeLR viability
Structure: CCOC(=O)Cc1csc(NC(=S)NC(=O)c2ccc([N+](=O)[O-])cc2)n1
  A = -11; B = 2385; C = -3.3; D = -11; E = 15; F = 10; G = 0
Structure: S=C(NC1CCCC1)NN1CCOCC1
  A = 8; B = 2451; C = 0.2; D = -20; E = 6; F = 2; G = -2
Structure: N#Cc1ccccc1NC(=O)CN(Cc1ccccc1)Cc1ccccc1
  A = 3; B = 3256; C = 4.3; D = -3; E = 5; F = 3; G = -10
Structure: O=C(O)c1cc(-c2ccccc2)nc(-c2ccccc2)c1
  A = -11; B = 3746; C = 6.2; D = -15; E = 4; F = 14; G = .
Structure: Cc1nc(-c2cccc(NC(=O)c3ccc(-n4nccc4C)cc3)c2)cs1
  A = -13; B = 8874; C = -4.1; D = -22; E = -2; F = 2; G = .

All compounds of this part (from the top)
Letters – A = Sa ugtP lethal; B = Autofluor counter; C = Sa RN4220 lethal; D = PrP UTR inh; E = Mtb hypoxia inh; F = Mtb hypoxia inh growth; G = BJeLR viability
Structure: CCOC(=O)Cc1csc(NC(=S)NC(=O)c2ccc([N+](=O)[O-])cc2)n1
  A = -11; B = 2385; C = -3.3; D = -11; E = 15; F = 10; G = 0
Structure: S=C(NC1CCCC1)NN1CCOCC1
  A = 8; B = 2451; C = 0.2; D = -20; E = 6; F = 2; G = -2
Structure: N#Cc1ccccc1NC(=O)CN(Cc1ccccc1)Cc1ccccc1
  A = 3; B = 3256; C = 4.3; D = -3; E = 5; F = 3; G = -10
Structure: O=C(O)c1cc(-c2ccccc2)nc(-c2ccccc2)c1
  A = -11; B = 3746; C = 6.2; D = -15; E = 4; F = 14; G = .
Structure: Cc1nc(-c2cccc(NC(=O)c3ccc(-n4nccc4C)cc3)c2)cs1
  A = -13; B = 8874; C = -4.1; D = -22; E = -2; F = 2; G = .
Structure: CC(=O)c1ccc(NC(=O)CN2CCC(C(=O)c3ccc(F)cc3)CC2)cc1
  A = 7; B = 5906; C = 3.9; D = -13; E = -1; F = -6; G = -3
Structure: O=C/C(=C\Nc1ccc(C(=O)N2CCOCC2)cc1)c1nc2ccccc2o1
  A = 3; B = 3996; C = 1.7; D = -15; E = -2; F = 1; G = 1
Structure: CCCCOc1cccc(C(=O)NC(=S)Nc2ccc(Cl)c(C(=O)O)c2)c1
  A = -12; B = 4112; C = 13; D = -5; E = 0; F = 16; G = 4
Structure: CCOc1ccc(-c2csc(C3COc4ccccc4O3)n2)cc1 (stereo not given)
  A = 10; B = 23266*; C = 3.4; D = -97; E = 3; F = 6; G = .
Structure: CN1CCN(C(=O)c2ccc3nc(-c4ccccc4)c(-c4ccccc4)nc3c2)CC1
  A = 11; B = 3933; C = 2.4; D = -15; E = 20; F = 16; G = 2
Structure: C=CCc1ccc(OCCOc2cccc3ccc(C)nc23)c(OC)c1
  A = -5; B = 9218; C = 19; D = -20; E = 11; F = 15; G = 5
Structure: O=C(CN1C(=O)NC2(CCCCCCC2)C1=O)NCc1cccs1
  A = 5; B = 2477; C = 1.8; D = -22; E = 1; F = 10; G = -7
Structure: Cc1nnc(NC(=O)CN2C(=O)NC3(CCCC3)C2=O)s1
  A = 4; B = .; C = 2.5; D = -18; E = 3; F = 1; G = 2
Structure: Cc1ccc(C(=O)Nc2cccc(NC(=O)c3ccc(C)cc3)n2)cc1
  A = -9; B = .; C = 7.0; D = .; E = 6; F = -2; G = -2
Structure: c1ccc(CCC2Cc3ccccc3N2)cc1 (stereo not given)
  A = 2; B = 4194; C = 4.7; D = -41; E = 9; F = 0; G = .

Copied from the listing, 3 compounds:
Letters – A = Sa ugtP lethal; B = Autofluor counter; C = Sa RN4220 lethal; D = PrP UTR inh; E = Mtb hypoxia inh; F = Mtb hypoxia inh growth; G = BJeLR viability
Structure: CCOc1ccc(-c2csc(C3COc4ccccc4O3)n2)cc1 (stereo not given)
  A = 10; B = 23266*; C = 3.4; D = -97; E = 3; F = 6; G = .
Structure: CN1CCN(C(=O)c2ccc3nc(-c4ccccc4)c(-c4ccccc4)nc3c2)CC1
  A = 11; B = 3933; C = 2.4; D = -15; E = 20; F = 16; G = 2
Structure: C=CCc1ccc(OCCOc2cccc3ccc(C)nc23)c(OC)c1
  A = -5; B = 9218; C = 19; D = -20; E = 11; F = 15; G = 5

Other results
Letters – A = Sa ugtP lethal; B = Autofluor counter; C = Sa RN4220 lethal; D = PrP UTR inh; E = Mtb hypoxia inh; F = Mtb hypoxia inh growth; G = BJeLR viability
Structure: CCC(C(=O)N1CCC2(CC1)OCCO2)c1ccccc1 (stereo not given)
  A = -2; B = 16484*; C = -3.2; D = -11; E = -7; F = 3; G = 0
Structure: COc1ccc2[nH]c3c(c2c1)CCN1C(=O)C(CC(=O)NCCC2=CCCCC2)C[C@H](C(=O)N2CCOCC2)[C@@]31CCC1CCCC1 (stereo not given in full)
  A = -3; B = 3713; C = 0.2; D = 2; E = -10; F = -4; G = .
Structure: CCOc1ccc(Cl)cc1C=NNC(=O)CNC(=O)c1ccccc1
  A = 13; B = .; C = 5.1; D = .; E = -4; F = 0; G = .
Structure: O=C1C(Cl)=C(N2CCC(C(=O)O)CC2)C(=O)c2ccccc21
  A = 9; B = 4839; C = 4.8; D = -22; E = 17; F = 4; G = -6
Structure: COc1ccccc1N(CC(=O)N(CC(C)C)CC(C)C)S(=O)(=O)c1cccs1
  A = 2; B = 3961; C = 4.6; D = -31; E = 9; F = 4; G = 7
Structure: Nc1nc(Cl)cc(Oc2ccc(Cl)cc2)n1
  A = 15; B = 3225; C = 4.1; D = 15; E = 0; F = -12; G = 6
Structure: CC1Sc2n(c3ccccc3[n+]2C)N=C1c1ccccc1 (stereo not given)
  A = 4; B = 2544; C = 12; D = -18; E = 0; F = 2; G = -8
Structure: Cc1c(C(=O)N2CCCC2)c(S(=O)(=O)N2CCN(c3ccccc3F)CC2)c(C)n1C
  A = 0; B = 5535; C = -1.9; D = -2; E = 15; F = 4; G = 18
Structure: Cc1coc2c(C)c3oc(=O)c(CCC(=O)N4CCC(C(=O)NCCCC(=O)O)(c5ccccc5)CC4)c(C)c3cc12
  A = -2; B = 5454; C = 5.7; D = -3; E = -4; F = 0; G = -5
Structure: Cc1cccc(C)c1N=C1SC(CC(=O)Nc2c(C)cccc2C)C(=O)N1CCc1ccccn1 (stereo not given)
  A = .; B = 2031; C = .; D = -8; E = .; F = .; G = 8
Structure: O=C1NC(=O)/C(=C/c2ccc(-c3cccc([N+](=O)[O-])c3)o2)S1
  A = -1; B = .; C = 0.6; D = -11; E = 4; F = -1; G = -4
Structure: O=c1[nH]cnc2c1nc(SCc1ccccc1)n2C1OC(CO)C(O)C1O (stereo not given)
  A = 1; B = 8870; C = -2.5; D = -2; E = -4; F = 4; G = 0
Structure: COc1cccc(C(=O)O/N=C(\N)c2ccc([N+](=O)[O-])cc2)c1
  A = -2; B = 2700; C = 0.0; D = -85; E = .; F = .; G = 3
Structure: O=c1[nH]cnc2c1C(c1ccccc1)c1c(nc[nH]c1=O)O2
  A = 2; B = 3270; C = 1.4; D = -11; E = 5; F = -7; G = 7
Structure: CCOC(=O)C1CCN(c2ccc(-c3cccs3)nn2)CC1
  A = 4; B = 3578; C = 3.7; D = -82; E = 6; F = 1; G = 25
Structure: CN(c1ccc(C(=O)Nc2cccnc2)cc1)S(=O)(=O)c1ccc(Cl)cc1
  A = -3; B = ?; C = 3.0; D = 1; E = 0; F = 18; G = 2
Structure: CCOC(=O)CNC(=O)CN1C(=O)CC(c2ccco2)Sc2ccccc21 (stereo not given)
  A = 11; B = 3868; C = -0.6; D = -21; E = 0; F = 4; G = -1
Structure: O=C(OCc1cnc(Cl)s1)c1cccc(Cl)c1
  A = 14; B = 2173; C = 12; D = -4; E = .; F = .; G = 2
Structure: CCS(=O)(=O)n1nc(C(=O)N2CCOCC2)nc1N
  A = 4; B = 3307; C = 0.9; D = -14; E = 4; F = 5; G = -9
Structure: COc1cccc(CNCCc2c[nH]c3ccccc23)c1OC
  A = 8; B = 4397; C = 21; D = 1; E = 7; F = 9; G = 1
Structure: COc1ccc(-c2ccc(C(=O)O)o2)c([N+](=O)[O-])c1
  A = 15; B = 4574; C = 0.3; D = -7; E = 11; F = 4; G = -1
Structure: COc1cccc(NC(=S)N(CCc2nc3cc(C)c(C)cc3[nH]2)Cc2cccnc2)c1
  A = -3; B = 8799; C = 6.4; D = -15; E = 1; F = 7; G = 8
Structure: CCC(C)C(=O)N[C@@H](c1ccccc1)[C@@H](O)C(=O)O[C@H]1C[C@@]2(O)[C@@H](OC(=O)c3ccccc3)C3[C@](C)(C(=O)[C@H](OC(C)=O)C(=C1C)C2(C)C)[C@@H](O)C[C@H]1OC[C@@]31OC(C)=O (stereo not given in full)
  A = -25; B = 5115; C = 0.4; D = 34; E = .; F = .; G = 18
Structure: CCN(CC)S(=O)(=O)c1cc(NC(=O)COC(=O)Cn2cnc3ccccc32)ccc1C
  A = 1; B = 2614; C = 9.9; D = -20; E = 0; F = 2; G = -23
Structure: Cc1ccccc1N(C(=O)c1cccs1)c1nc2ccccc2s1
  A = 74; B = 4877; C = 1.1; D = -3; E = 2; F = 11; G = 5
Structure: CCOC(=O)Cn1c(=O)oc2cc(S(=O)(=O)Nc3cc(OCC)ccc3OCC)ccc21
  A = 2; B = 16486*; C = 4.4; D = -2; E = 4; F = 2; G = .
Structure: Cc1c2cnn(-c3ccccc3)c(=O)c2c(C)n1CCCC(=O)NCCN1CCN(C)CC1
  A = -1; B = .; C = 2.8; D = -3; E = -11; F = -13; G = 11
Structure: Cc1cc(C)cc(C(=O)NCC(=O)OC(C)C(=O)N(C)c2ccccc2)c1 (stereo not given)
  A = 7; B = 4549; C = -0.5; D = -25; E = 2; F = -3; G = -9
Structure: Cc1ccccc1N1CC(C(=O)NC2CCCC2)CC1=O (stereo not given)
  A = .; B = 4121; C = .; D = -36; E = .; F = .; G = -6
Structure: O=C(CSC1c2ccccc2-c2ccccc21)N/N=C/c1ccccc1
  A = .; B = 13282; C = .; D = 10; E = .; F = .; G = -10
Structure: CCCNC(=O)COc1ncnc2sccc12
  A = 7; B = 3415; C = 7.1; D = -3; E = 3; F = 6; G = -7
Structure: O=C(NCc1ccc(F)cc1)c1cc2n(n1)C(C(F)(F)F)CC(C1CC1)N2 (stereo not given)
  A = 6; B = 5525; C = 1.7; D = -20; E = -7; F = -2; G = 0
Structure: COC(=O)CSc1nnc(Cc2ccccc2)n1-c1ccc(C)cc1
  A = -7; B = 3651; C = 6.0; D = -19; E = 4; F = 8; G = -7
Structure: CN(C)c1ccc(C(CNC(=O)c2cccs2)N(C)C)cc1 (stereo not given)
  A = 9; B = 3908; C = 0.1; D = -21; E = 0; F = -8; G = 9
Structure: C/C(=N\NC(=O)COc1ccccc1-c1ccccc1)c1ccc(O)cc1O
  A = .; B = 4503; C = .; D = 14; E = .; F = .; G = 11
Structure: CCC(C)(C)n1nnnc1C(c1cccs1)N1CCN(c2nc3ccccc3s2)CC1 (stereo not given)
  A = 33; B = 7020; C = 0.6; D = -33; E = 6; F = 5; G = -1
Structure: COc1cccc(CC(=O)Nc2nc(-c3cccnc3)cs2)c1
  A = 1; B = 2342; C = 0.4; D = -15; E = 2; F = -3; G = 8
Structure: COc1ccc(-c2ccc(C#N)c(SCC(=O)OCc3ccccc3)n2)cc1OC
  A = -20; B = 2799; C = 2.0; D = -6; E = 6; F = 9; G = 2
Structure: CC(C)CC(c1nnnn1Cc1ccco1)N1CCN(C2CCCC2)CC1 (stereo not given)
  A = 4; B = 4340; C = 2.1; D = -9; E = .; F = .; G = -4
Structure: C=C(C)C1C2OC(=O)C1[C@]1(O)CC3O[C@]34C(=O)OC2[C@]14C (stereo not given in full)
  A = -3; B = .; C = 1.7; D = .; E = -4; F = 1; G = .
Structure: O=C1CCCC(=O)N1c1ccc(N2CCOCC2)c([N+](=O)[O-])c1
  A = 12; B = 4567; C = 2.9; D = -32; E = 13; F = -2; G = 0
Structure: O=C(COc1ccccc1C(=O)N/N=C\c1ccc(O)c(O)c1)N/N=C/c1ccc(O)c(O)c1
  A = .; B = 2536; C = .; D = -20; E = .; F = .; G = 1
